Autofluor counter: flagged as autofluorescent in microsphere protease counterscreen; fluorescence intensity (concentration not given with the values); 3.1% of 360,000 active; compound autofluorescence counterscreen, microsphere flow cytometry; hits give high values;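 active = at least 3 SD above the mean of all compounds, about 16000 in these data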;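 note: 100 nL of 1 mM stock went into each well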
PrP UTR inh: inhibition of PrP 5' UTR reporter expression | inhibition, % (test concentration not listed) | 0.35% of 340,000 active | cell-based PrP 5' UTR mRNA reporter, plate reader;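 active = every replicate at 50% or more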;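 note: 0 = median of the neutral control wells; tested in H4 reporter cells; numbers are from one replicate; inactives centre near -14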
RN4220 kill: S. aureus RN4220 growth inhibition; OD600, 16 h; inhibition, % (no concentration beside the values); 0.33% of 330,000 active;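 active = z-score of -3 or lower and OD600 up to 0.18 on both plates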;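 note: plate controls were untreated cells for no effect and reference antibiotic for full effect; stock transfer was 100 nL into about 80 µL; one replicate is shown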
ugtP null kill: kills S. aureus RN4220 lacking UgtP; 0.54% of 330,000 active; S. aureus RN4220 ugtP deletion, OD600 growth, 16 h; some inactives read as strong as hits; growth inhibition, % (test concentration not listed);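 active = z-score under -3 and OD600 up to 0.15 on both plates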;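 note: plate controls were untreated wells for no effect and antibiotic for full effect; wells of about 80 µL received 100 nL stock; the first replicate is given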
* hit, by the source's call; x = not tested or not shown. These rows are one share of the data. The share of hits here may be higher or lower than overall.

SMILES	Autofluor counter	PrP UTR inh	RN4220 kill	ugtP null kill
O=C(Cn1cc(COc2cccc([N+](=O)[O-])c2)nn1)c1ccc(O)cc1	3840	-14.6	x	x
COc1ccc(NC(=O)N(C)C[C@H]2Oc3c(NS(=O)(=O)c4ccc(OC)cc4)cccc3C(=O)N([C@H](C)CO)C[C@@H]2C)cc1	3031	-19.2	x	x
Cc1cc(C(=O)Nc2cccc3c2O[C@@H](CN(C)S(=O)(=O)c2ccccc2)[C@H](C)CN([C@@H](C)CO)C3=O)n(C)n1	4064	-4.5	x	x
COC(=O)C1=C(c2cccc(C#N)c2)C[C@@H]2CC[C@H]1N2C(=O)NCCCOC(C)C	3105	-14.0	x	x
CN1CCN(c2ccc(S(=O)(=O)N3CCOCC3)cc2NC(=O)COc2ccc(C#N)cc2)CC1	3871	-6.3	x	x
CN(C)c1ccc2c(c1[N+](=O)[O-])Cc1ccccc1-2	4012	-63.1	x	x
C=C[C@@H]1c2cc(C)ccc2N(S(=O)(=O)c2ccc(C)cc2)[C@H](c2ccccc2C(F)(F)F)C1(C#N)C#N	2973	7.0	x	x
N#Cc1ccc(OCC(=O)NNC(=S)NC(=O)C2CC2)cc1	3490	-37.5	x	x
Cc1noc(C)c1NC(=O)N(C)C[C@H]1Oc2ccc(NS(=O)(=O)c3cccs3)cc2C(=O)N([C@H](C)CO)C[C@@H]1C	3575	-15.6	x	x
Cc1cn([C@@H](CCCCNC(=O)OC(C)(C)C)C(=O)NCCCCCCCCCCC(=O)N2CCN(C(=O)OC(C)(C)C)CC2)nn1	4038	-11.6	x	x
CCOC(=O)[C@H]1[C@H]2COc3ccc(OC)cc3[C@@H]2N2C(=O)CN(CCc3c[nH]c4ccccc34)C(=O)[C@@]12C	3863	-14.6	x	x
C=C(CC[C@@H](O)C(C)(C)O)[C@H]1CC[C@]2(C)[C@@H]1CCC1[C@@]3(C)CC[C@H](O)C(C)(C)C3CC[C@]12C (some centres undefined)	3025	-4.8	x	x
Brc1ccc(-n2cccc2C=Nn2cnnc2)cc1	x	x	0.2	2.6
Cc1cc(C)nc(N=c2ssnc2Cl)c1	x	x	2.5	44.9
Cn1cccc1CC(=O)NN=Cc1cccc2ccccc12	x	x	-6.2	6.0
COc1ccc(C=NNC(=O)c2nc(Cl)c(Cl)c(N)c2Cl)cc1COc1ccccc1F	x	x	-8.1	-2.5
CC(=NO)C(=NO)c1ccc(C)o1	x	x	-0.4	5.7
CCOC(=O)C1=C(CSc2nc(C)cc(C)c2C#N)OC(N)=C(C#N)C1c1cccs1 (centres undefined)	x	x	1.2	1.7
O=C(NN=Cc1ccc(-c2ccccc2[N+](=O)[O-])o1)c1cccnc1	x	x	-1.8	-2.4
CCOC(C)=Nn1c2nc3ccccc3nc2c2c(=O)n(Cc3ccccc3Cl)c(C)nc21	x	x	0.5	-0.2
CCOC(=O)c1c(C)c2c(n1C)CCCC2=NO	x	x	4.2	2.6
CC(CC(=O)Nc1ccc(OCc2ccccc2)cc1)=NNC(=O)C(=O)Nc1ccc(C)c(Cl)c1	x	x	-7.4	-8.4
CC(=NNS(=O)(=O)c1ccc(F)cc1)c1ccc(NC(=O)c2ccc(C)o2)cc1	x	x	-0.9	2.2
N#Cc1ccc(C=NN=C(N)N)cc1	x	x	-0.1	4.0
CC(=NNC(=O)c1c(Br)c(C)nn1C)c1cccc(NC(=O)C2CCC2)c1	x	x	-1.1	4.2
C=CCSc1nnc(NC(=O)CSc2ccccn2)s1	x	x	-2.7	-5.8
O=C(Cc1cc(=O)[nH][nH]1)NN=Cc1cccc(Cl)c1Cl	x	x	2.2	1.5
Cc1scc(C(=O)NN=Cc2ccc(OC(C)C)cc2)c1C	x	x	-2.6	9.9
Cc1ccc(C=NNC(=O)C2=NNC(c3ccccc3)(c3ccccc3)C2)c(O)c1	x	x	36.2	48.5
O=C(NN=Cc1ccc(Cl)cc1)c1sccc1-n1cccc1	x	x	0.5	-6.3

Another view of two compounds above.
compound | Autofluor counter | PrP UTR inh | RN4220 kill | ugtP null kill
C=CCSc1nnc(NC(=O)CSc2ccccn2)s1 | x | x | -2.7 | -5.8
N#Cc1ccc(C=NN=C(N)N)cc1 | x | x | -0.1 | 4.0

(next part)
SMILES	Autofluor counter	PrP UTR inh	RN4220 kill	ugtP null kill
O=C(NN=Cc1ccccn1)C1COc2cc3ccccc3cc2O1 (centres undefined)	x	x	-1.6	-5.8
COc1ccccc1NC(=O)C(=O)NN=C(C)CC(=O)Nc1ccc(OCc2ccccc2)cc1	x	x	0.2	-4.6
ON=C(Cc1ccccn1)c1ccccc1	x	x	2.3	7.5
CC(=NNc1nc(-c2ccc(Cl)cc2)cs1)c1cccs1	x	x	-2.2	-2.3
COc1ccccc1/C=C1/C(=NO)C2CCN1CC2	x	x	0.1	3.4
Cc1nn(C)cc1C=NNC(=O)c1ccc2c(c1)c(C)c(C)n2Cc1ccccc1	x	x	1.7	-11.4
O=[N+]([O-])c1cccc(C=NN2CCN(Cc3ccccc3Cl)CC2)c1	x	x	3.3	11.1
Cc1ccc(S(=O)(=O)ON=C2CCCc3ccccc32)cc1	x	x	4.2	-3.0
COc1cccc(C=NNC(=O)c2cc(C34CC5CC(CC(C5)C3)C4)[nH]n2)c1	x	x	-6.0	-37.4
CC(=NN1CCN(C2c3ccccc3-c3ccccc32)CC1)c1cccnc1	x	x	-1.2	-19.9
COC(=O)c1ccccc1N1C(=O)C2C3C=CC(C3)C2C1=O (centres undefined)	x	x	2.5	-3.7
O=C(ON=CC1=C(Cl)c2ccccc2CC1)c1ccc(F)cc1	x	x	-0.1	-2.9
Cc1nnc(SCC(=O)NN=Cc2cn(-c3ccccc3)nc2-c2ccc(F)cc2)n1-c1ccccc1	x	x	2.9	-4.5
Cc1nn(-c2ccccc2)c(C)c1C=NNS(=O)(=O)c1ccc(Cl)cc1	x	x	-1.6	-1.8
O=C(Cn1cncn1)NN=Cc1c2ccccc2cc2ccccc12	x	x	-4.0	-2.4
CC1CCCN(CC(O)=C(C#N)c2nc3ccccc3[nH]2)C1 (centres undefined)	x	x	6.6	9.9
Cc1cccc(C=c2sc(=CC(=O)C(C)(C)C)[nH]c2=O)c1	x	x	2.8	-26.3
Cc1cccc(-n2cnc(C(=O)NN=Cc3ccc(Br)cc3)c2)n1	x	x	5.8	-4.0
CCON=C(C)c1c(O)c(C)c(-c2ccccc2)n(-c2ccccc2)c1=O	x	x	7.4	8.4
COc1ccc(C=NNC(=O)C2C(=O)NCC2c2ccccc2)cc1O (centres undefined)	x	x	0.0	-2.6
Cc1ccc2c(COn3nnc4ccc(S(=O)(=O)N(C)C)cc43)cc(=O)oc2c1C	x	x	3.4	8.8
O=C(Cc1cccc2ccccc12)NN=Cc1ccc(OC(=O)/C=C/c2ccco2)cc1	x	x	5.5	-3.7
Cc1ccc(CN(CC(=O)NN=Cc2ccccc2[N+](=O)[O-])S(=O)(=O)c2ccc(C)cc2)cc1	x	x	-4.0	-13.5
Cc1ccc(OCC(=O)NN=Cc2cn[nH]c2-c2ccc(Cl)c(Cl)c2)cc1	x	x	-14.2	-19.0
Cc1ccc(N(CC(=O)NN=Cc2cc(C)n(-c3ccccc3)c2C)S(C)(=O)=O)c(C)c1	x	x	2.0	-8.9
O=[N+]([O-])c1ccc(NC(=S)NC(=NCS(=O)(=O)c2ccccc2)c2ccccc2)cc1	x	x	-10.7	-1.5
O=[N+]([O-])c1cccc(C=NN2CCN(c3ccc(Cl)cc3)CC2)c1	x	x	5.2	4.8
O=C(NN=Cc1cn(-c2ccccc2)nc1-c1ccc(F)cc1)c1ccc2c(c1)OCO2	x	x	-4.4	-0.7
CC(C)(C=NO)/[N+]([O-])=C/c1ccco1	x	x	2.0	3.7
Cc1cc(C=NNC(=O)CC2(C)OCCO2)c(C)n1-c1cc(Cl)cc(Cl)c1	x	x	-0.8	-6.8
O=C1C2C3C=CC(C4CC34)C2C(=O)N1N=Cc1ccc(-c2ccc(Cl)cc2[N+](=O)[O-])o1 (centres undefined)	x	x	-4.0	11.9
CSc1ccc(C=NNC(=O)c2cccc(O)c2)cc1	x	x	-4.0	-1.1
CCn1ncc(C=NN=C2CCC3C4CCc5cc(O)ccc5C4CCC23C)c1C (centres undefined)	x	x	-0.8	-3.5
CC(=NNS(=O)(=O)c1ccc(Cl)cc1)c1cccc(O)c1	x	x	1.2	2.9
Cc1ccc(S(=O)(=O)NN=Cc2ccc(OS(=O)(=O)c3ccc(C)c([N+](=O)[O-])c3)cc2)cc1	x	x	-10.7	-18.3
Cc1ccsc1C=Nn1c(-c2ccccc2)n[nH]c1=S	x	x	10.1	-14.9
COc1ccc(C=Nn2c(SC)nnc(C(C)(C)C)c2=O)c(OC)c1	x	x	0.1	8.4
CCCc1cc(=O)[nH]c(N=C(NC(=O)c2ccccc2)Nc2ccc3c(c2)OCCO3)n1	x	x	-2.9	-6.3
CC(=O)Oc1cccc(C=c2sc3nc(-c4ccco4)nn3c2=O)c1	x	x	-0.4	-7.4
O=C(NN=Cc1ccsc1)c1cc(O)cc(O)c1	x	x	-3.0	1.0
CCCC1SC(=NN=Cc2ccc(OC)cc2)N(Cc2ccccc2)C1=O (centres undefined)	x	x	-4.4	25.1
C#CCOc1ccc(Br)cc1C=NO	x	x	4.7	8.6
CCOc1ccc(S(=O)(=O)N(CC(=O)NN=Cc2ccc(-c3ccc([N+](=O)[O-])cc3)o2)c2ccccc2)cc1	x	x	-12.8	-15.1
ON=Cc1cccn1-c1ccc(Br)cc1	x	x	0.1	0.7
CN(C)c1ccc(C=NNc2ccc(-n3ccnc3)nn2)cc1	x	x	-1.1	-7.4
Cc1ccc(C(=O)NN=Cc2cccn2C)cn1	x	x	-0.3	15.3
CON=C(CS(=O)(=O)c1ccc(Br)cc1)c1ccc(OC)cc1	x	x	8.9	1.8
O=C(CC=NOCc1c(Cl)cccc1Cl)c1cnc(-c2ccccc2)s1	x	x	3.1	-4.2
Cc1c(Cl)c([N+](=O)[O-])nn1Cc1ccc(C(=O)NN=Cc2cccc(Br)c2)o1	x	x	-9.5	-4.2
O=c1oc2ccccc2nc1C=C(O)/C=C\c1ccccc1	x	x	3.4	-2.5
CCn1c(SCC(=O)N2CCN(c3ccccc3)CC2)nnc1-c1ccncc1	x	x	1.6	5.3
COC(=O)C=c1sc(=C(C#N)C(=O)NCc2ccco2)n(-c2ccccc2)c1=O	x	x	-2.2	3.4
COc1ccc(C2N(Cc3ccccc3)CC(=O)N2N=C(C)c2ccccc2)cc1 (centres undefined)	x	x	1.0	-1.4
COc1ccc(C=NNC(=O)c2cc(-c3ccc(C)cc3C)nc3ccccc23)cc1COC(C)=O	x	x	-1.8	-10.6
CC(CC(=O)Nc1ccc(OCc2ccccc2)cc1)=NNC(=O)C(=O)Nc1ccccc1C	x	x	-1.1	-13.6
COc1ccc(C(=O)ON=Cc2ccc(S(=O)c3ccc(Cl)cc3)nc2)cc1 (centres undefined)	x	x	1.9	4.5
CC(=NOC(=O)NC(C)C)c1sc(-c2ccccc2)nc1C	x	x	3.6	5.4

Compounds listed so far that have a nitro group on carbon:
SMILES	Autofluor counter	PrP UTR inh	RN4220 kill	ugtP null kill
O=C(Cn1cc(COc2cccc([N+](=O)[O-])c2)nn1)c1ccc(O)cc1	3840	-14.6	x	x
CN(C)c1ccc2c(c1[N+](=O)[O-])Cc1ccccc1-2	4012	-63.1	x	x
O=C(NN=Cc1ccc(-c2ccccc2[N+](=O)[O-])o1)c1cccnc1	x	x	-1.8	-2.4
O=[N+]([O-])c1cccc(C=NN2CCN(Cc3ccccc3Cl)CC2)c1	x	x	3.3	11.1
Cc1ccc(CN(CC(=O)NN=Cc2ccccc2[N+](=O)[O-])S(=O)(=O)c2ccc(C)cc2)cc1	x	x	-4.0	-13.5
O=[N+]([O-])c1ccc(NC(=S)NC(=NCS(=O)(=O)c2ccccc2)c2ccccc2)cc1	x	x	-10.7	-1.5
O=[N+]([O-])c1cccc(C=NN2CCN(c3ccc(Cl)cc3)CC2)c1	x	x	5.2	4.8
O=C1C2C3C=CC(C4CC34)C2C(=O)N1N=Cc1ccc(-c2ccc(Cl)cc2[N+](=O)[O-])o1 (centres undefined)	x	x	-4.0	11.9
Cc1ccc(S(=O)(=O)NN=Cc2ccc(OS(=O)(=O)c3ccc(C)c([N+](=O)[O-])c3)cc2)cc1	x	x	-10.7	-18.3
CCOc1ccc(S(=O)(=O)N(CC(=O)NN=Cc2ccc(-c3ccc([N+](=O)[O-])cc3)o2)c2ccccc2)cc1	x	x	-12.8	-15.1
Cc1c(Cl)c([N+](=O)[O-])nn1Cc1ccc(C(=O)NN=Cc2cccc(Br)c2)o1	x	x	-9.5	-4.2
